Vaccinia pol inh: inhibitors of vaccinia virus processive DNA synthesis (E9 polymerase). normalized absorbance, % (test concentration not listed). AID 493162. in vitro processive DNA synthesis, absorbance read-out; hits give low values; some inactives read as strong as hits. 46,000 tested, 0.94% active;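 active means replicate mean up to 90% and picked by the depositor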;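 further: 100% = median of the test wells of a plate; 100 nL library stock went into each well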
* = called active by the depositor.

SMILES | Vaccinia pol inh
CCN(CC)S(=O)(=O)c1cc(C(=O)N(C)c2ccccc2)ccc1Cl | 100
CCc1ccc(S(=O)(=O)NCC(O)COc2ccc(OC)cc2)cc1 (stereo not given) | 101
CN(C)C(=O)C12CCC(C)(C(=O)C1)C2(C)C (stereo not given) | 100
S=c1nc(N=Cc2ccco2)cc(/N=C/c2ccco2)[nH]1 | 93
COC(=O)c1cc(-c2ccccc2)n[nH]1 | 101
CSc1ccc(C(=O)NC(=O)NCc2cccc(Cl)c2)s1 | 101
CN1Cc2c(N)cccc2C(c2ccccc2)C1 (stereo not given) | 101
NC(=O)C1CCN(CC(O)CSc2ccc(F)cc2)CC1 (stereo not given) | 100
CCc1cc2c(=O)c(-c3ccn(C(C)=O)n3)coc2cc1OC(C)=O | 98
O=C(/C=C/c1ccccc1)OCc1cnc(Cl)s1 | 105
O=C(O)c1cccc(NC(=O)C2CCCCC2C(=O)O)c1 (stereo not given) | 100
Cc1cc(Nc2cccc(Cl)c2)nc2ccc(NC(=O)c3ccccn3)cc12 | 101
O=C1C=CC(=O)N1c1cc(C(F)(F)F)ccc1Cl | 94
O=S(=O)(NCCN1CCCC1)c1ccc(C(F)(F)F)cc1 | 114
O=C(Nc1ccccc1)C1CC(=O)n2ncnc2N1 (stereo not given) | 104
COc1ccc(C2OC(COc3ccccc3)CN(C(=O)c3ccccc3)O2)cc1OC (stereo not given) | 100
O=C(COC(=O)/C=C/c1ccccc1)NC1CCCc2ccccc21 (stereo not given) | 90
Nc1ccc2nc(Cc3ccccc3)[nH]c2c1 | 90
O=C(CC1C(=O)NCCN1C(=O)Nc1ccccc1)Nc1cc(Cl)ccc1Cl (stereo not given) | 104
CC(=O)Nc1ccc(C(=O)CSc2nccn2C)cc1 | 99
CC(=O)NC1C(=O)Nc2c1cccc2C(F)(F)F (stereo not given) | 104
CCCn1cnc2cc(NCc3ccc(Cl)cc3Cl)ccc21 | 98
Cc1c(C#N)c2ccccc2n1CC(=O)O | 93
CCc1ccc(-c2cc(O)cc3sc(=O)oc23)cc1 | 100
COc1ccccc1CC(=O)Nc1ccc(-c2nc3ccccc3[nH]2)cc1 | 100
CN(C)/C=C/S(=O)(=O)c1ccc(Cl)cc1 | 88
COc1ccc(S(=O)(=O)Nc2cncc(C(=O)NCc3ccc(C)cc3)c2)cc1 | 102
Clc1ccc(Nc2nc(NCCN3CCOCC3)nc(Nc3ccc(Cl)cc3)n2)cc1 | 70
CSc1ccc(/C=N/n2nnnc2Nc2ccccc2)cc1 | 95
O=C(NCCCN1CCCC1=O)c1ccc(N2CCCC2=O)cc1 | 103
O=C(N1CCCCC1)C1(c2ccc(Cl)cc2)CCCC1 | 110
Cc1cccc(NC(=O)c2ccccc2N)n1 | 100
Cc1[nH]c2ccccc2c1SCCNC(=O)c1cccc2ccccc12 | 88
O=C(NS(=O)(=O)c1ccc(Br)cc1)c1ccccc1 | 98
Nc1c(C(=O)NCc2ccccn2)nnn1-c1ccc(OC(F)(F)F)cc1 | 94
Nc1cc(C(F)(F)F)ccc1-n1cncn1 | 88
COc1cccc2sc(NC(=O)c3ccc(Br)cc3)nc12 | 103
CC(=O)N(c1ccccc1)c1cccc(C(F)(F)F)c1 | 96
CC1CN(c2ccc3nnc(-c4ccc(C(F)(F)F)cc4)n3n2)CC(C)O1 (stereo not given) | 99
CCOC(=O)CN1C(=O)/C(=C\c2ccc(OC)c(Br)c2)Sc2ccccc21 | 104
COc1ccc(-c2cnc3cc(C)nn3c2N)cc1 | 97
CCCCC/C=C\CC(O)/C=C/c1cccc(CC(O)CCCCO)n1 (stereo not given) | 100
Cc1ccccc1NC(=O)c1ccc2nc(N3CCC(C)CC3)sc2c1 | 99
CCc1ccccc1-n1c(SCC(=O)N2CCCC2)nc2[nH]ncc2c1=O | 101
O=C(O)/C=C/c1ccc2c(c1)OCO2 | 82
Nc1nc2ccc(N3CCOCC3)cc2s1 | 108
Cc1cc(C)c2c(=O)n(CC(=O)Nc3ccc(Cl)cc3)sc2n1 | 104
c1ccc(Cn2cc(CN3CCN(c4ccccc4)CC3)c3ccccc32)cc1 | 81
CC1CCC(NC(=O)CCC(=O)Nc2nc(-c3cc4ccccc4oc3=O)cs2)CC1 (stereo not given) | 101
O=C(/C=C/c1ccco1)Nc1sc2c(c1C(=O)O)CCCCC2 | 92

(continued)
SMILES | Vaccinia pol inh
C[C@@H]1C[C@@H]([C@@H](O)CC2CC(=O)NC(=O)C2)C(=O)[C@@H](C)C1 | 102
Cc1c(N(C)S(C)(=O)=O)c(=O)n(-c2ccccc2)n1C | 100
O=C(O)CCCC(=O)Nc1ccccc1-n1ccnc1 | 102
O=C(O)CCn1c2ccccc2c2ccccc21 | 100
Cc1cc(=O)n(CCc2ccccc2)c(O)c1C#N | 91
NC(=Nc1ccc(Cl)c(Cl)c1)c1ccccc1 | 96
Cn1cc(Cl)c(C(=O)N2CCc3ccccc3C2)n1 | 100
CC(=O)Oc1ccc(N(C(C)=O)S(=O)(=O)c2ccc(Cl)cc2)cc1 | 101
CSc1nc2ccc(NC(=O)c3ccc(Cl)s3)cc2s1 | 102
O=C1c2ccccc2C(=O)N1CCCC(=O)n1ccc2ccccc21 | 100

Overlap with the part before: 10 entries, followed by the next part.
SMILES | Vaccinia pol inh
C[C@@H]1C[C@@H]([C@@H](O)CC2CC(=O)NC(=O)C2)C(=O)[C@@H](C)C1 | 102
Cc1c(N(C)S(C)(=O)=O)c(=O)n(-c2ccccc2)n1C | 100
O=C(O)CCCC(=O)Nc1ccccc1-n1ccnc1 | 102
O=C(O)CCn1c2ccccc2c2ccccc21 | 100
Cc1cc(=O)n(CCc2ccccc2)c(O)c1C#N | 91
NC(=Nc1ccc(Cl)c(Cl)c1)c1ccccc1 | 96
Cn1cc(Cl)c(C(=O)N2CCc3ccccc3C2)n1 | 100
CC(=O)Oc1ccc(N(C(C)=O)S(=O)(=O)c2ccc(Cl)cc2)cc1 | 101
CSc1nc2ccc(NC(=O)c3ccc(Cl)s3)cc2s1 | 102
O=C1c2ccccc2C(=O)N1CCCC(=O)n1ccc2ccccc21 | 100
Oc1ccccc1OCc1nc2ccccc2s1 | 95
CCOC(=O)c1sc2nc(SCC(=O)Nc3ccc(OCC)cc3)n(N)c(=O)c2c1C | 103
Cc1cccc(NC(=O)CCC2=NS(=O)(=O)c3cc(Br)cnc3N2)c1 | 96
CC(C)(C)C(=O)Nc1nnc(-c2ccccc2)o1 | 106
CCOC(=O)c1cnc2c(C)cc(C)cc2c1Nc1ccc2c(c1)OCCO2 | 100
Cc1ccc2c(c1)sc1ncc(NC(=O)c3ccccc3)c(=O)n12 | 97
CC1CC(C)CN(S(=O)(=O)c2ccc3[nH]cc(C(=O)NCCC4=CCCCC4)c(=O)c3c2)C1 (stereo not given) | 109
O=C1Nc2ccccc2NC1CC(=O)N1CCC2(CC1)OCCO2 (stereo not given) | 91
CCN(c1ccccc1)S(=O)(=O)c1ccc2[nH]cc(C(=O)NCc3ccccc3)c(=O)c2c1 | 102
CCCC1=C(C(=O)OCC)C(c2ccccc2OC)C(C#N)=C(N)O1 (stereo not given) | 100
CC(C)CC(=O)N1CC(=O)Nc2ccc(Cl)cc2C1c1ccc(F)cc1 (stereo not given) | 100
O=C(NC1CCCCC1)n1c(=O)oc2cc(S(=O)(=O)N3CCCCC3)ccc21 | 99
COc1cc(CNC(C)(C)CO)cc(Br)c1OCc1ccc(F)cc1 | 101
NC(=O)COc1ccc(C2C3=C(CCCC3=O)OC3=C2C(=O)CCC3)cc1Cl | 99
Cc1ccc(N(CCCCN2C(=O)c3ccccc3C2=O)C(=O)c2cccc(Cl)c2)cc1 | 100
N#Cc1cnn2c(-c3ccc(Oc4ccccc4)cc3)ccnc12 | 112
Nc1c(C(=O)c2ccc(Br)cc2)sc2[nH]c(=O)c(C(=O)O)cc12 | 94
CCC1=C/C(=C\c2ccc3c(c2)OCO3)C(=O)S1 | 101
O=C(CN1CCc2ccccc21)N1CCc2ccccc21 | 110
CCC1CC(O)C(C)C(C)S1 (stereo not given) | 100
CC(C)(C)c1oc(C(=O)O)cc1CN1CCCC1 | 110
Clc1ccc(CC2=NCCN2)cc1 | 101
COc1ccc(-c2cn3nc(N4CCC(C(=O)O)CC4)sc3n2)cc1 | 107
c1ccc(-c2nc(CSc3nnnn3-c3ccccc3)cs2)cc1 | 98
CCOC(=O)c1ccc(NCc2ccc(N(C)C)cc2)cc1 | 100
CCOc1ccc(N=CC2=C(O)CC(C)(C)CC2=O)cc1 | 97
COc1ccc2[nH]cc(S(=O)(=O)c3ccc(C)cc3)c2c1 | 98
CCSc1nnc(NC(=O)CC23CC4CC(CC(C4)C2)C3)s1 | 101
Cc1ccc(-c2cnc(-c3ccc(Br)cc3)o2)cc1 | 100
CCSc1nccc(-c2ccc3c(c2)CCC(C)(C)O3)n1 | 110

Grouped by structure, the entries above with a tert-butyl group (2)
SMILES | Vaccinia pol inh
CC(C)(C)C(=O)Nc1nnc(-c2ccccc2)o1 | 106
CC(C)(C)c1oc(C(=O)O)cc1CN1CCCC1 | 110

Carrying on.
SMILES | Vaccinia pol inh
CC(=O)N1C(C(=O)O)CSC12CCN(C)CC2 (stereo not given) | 85
CN(C(=O)c1ccc(F)cc1)c1ccc(OCC(=O)NCc2ccncc2)cc1 | 103
NC(=O)c1c2c(nc3ccccc13)CCCC2 | 105
CC1(C)O[C@@H]2CC3C4CCC5=CC(=O)CCC5(C)C4(F)C(O)CC3(C)[C@]2(C(=O)CCl)O1 (stereo not given in full) | 100
CCOC(=O)c1cccc(NC(=O)C(C)(C)CC)c1 | 101
CC[N+](CC)=c1scc(-c2ccccc2)s1 | 102
Clc1c(CSc2nncn2-c2ccccc2)nc2ncccn12 | 101
Cc1ccc(OCC(O)CN2CCN(c3ccccc3)CC2)cc1 (stereo not given) | 101
CCn1c(=O)c(C(=O)NC)c(O)c2ccccc21 | 100
CCNC(=S)N1N=C2c3ccccc3CCC2C1c1ccc(F)cc1 (stereo not given) | 94
COc1ccc(S(=O)(=O)C(F)(F)F)cc1NC(C)=O | 91
O=C1CC(c2cccc(Cl)c2)CC(O)=C1C=NC1CCCC1 (stereo not given) | 100
CN(C)c1ccncc1C(=O)Nc1ccc(F)cc1F | 103
O=C1CCC(=O)N1CC(O)Cn1c2ccccc2c2ccccc21 (stereo not given) | 98
CC[C@@H](CO)NCCN[C@@H](CC)CO | 100
O=C(CSc1ncnc2sc3c(c12)CCC3)NCCc1ccccc1 | 101
Cc1cc2ccccc2n1CCNC(=O)c1ccccc1 | 98
COc1ccc(N(C(=O)c2ccccc2)C2C=CS(=O)(=O)C2)cc1 (stereo not given) | 112
NC(=O)COC(=O)c1ccccc1C(=O)c1ccccc1 | 100
COc1cccc(C(=O)Nc2nn3c(-c4ccc(OC)c(OC)c4)nnc3s2)c1 | 112

Random excerpt: three entries already listed, in no set order.
SMILES | Vaccinia pol inh
CCN(c1ccccc1)S(=O)(=O)c1ccc2[nH]cc(C(=O)NCc3ccccc3)c(=O)c2c1 | 102
Cc1cccc(NC(=O)c2ccccc2N)n1 | 100
O=C1c2ccccc2C(=O)N1CCCC(=O)n1ccc2ccccc21 | 100

(further entries)
SMILES | Vaccinia pol inh
CC(=O)OCC(COC(C)=O)OC(C)=O | 99
FCc1nc2ccccc2s1 | 97
COc1cccc(Oc2coc3cc(O)ccc3c2=O)c1 | 98
O=C(/C=N/O)Nc1ccccc1I | 99
CCOC(=O)c1cc(-c2ccc(C)cc2)n(CC(=O)NC2CCCC2)c1C | 103
Cc1c(C(=O)N2CCc3ccccc32)sc2nc3n(c(=O)c12)CCCC3 | 110
CCc1ccc(NC(=O)c2cc3c(=O)n(CC)c4ccccc4c3s2)cc1 | 88
COc1ccc(CCNC(=O)CSc2nc3c(sc4ccccc43)c(=O)n2CCO)cc1OC | 100
CCOC(=O)c1sc2ncn(C(C)C(=O)OCc3ccccc3)c(=O)c2c1C (stereo not given) | 100
CNC(=O)Cc1nnc(-c2ccc(C)cc2)o1 | 103

Laid out differently: 4 of the compounds above
> COc1cccc(Oc2coc3cc(O)ccc3c2=O)c1
  Vaccinia pol inh = 98

> CCOC(=O)c1sc2ncn(C(C)C(=O)OCc3ccccc3)c(=O)c2c1C (stereo not given)
  Vaccinia pol inh = 100

> CNC(=O)Cc1nnc(-c2ccc(C)cc2)o1
  Vaccinia pol inh = 103

> O=C(/C=N/O)Nc1ccccc1I
  Vaccinia pol inh = 99

(further entries)
SMILES | Vaccinia pol inh
COC(=O)c1c2ccccc2c(C)c2ccccc12 | 105
O=C(Nc1ccc(Cl)cc1)C1CC/C(=C\c2ccccc2)C1=O (stereo not given) | 107
COC(=O)c1nc(-c2ccccc2)oc1Nc1ccc(C)cc1 | 102
O=C1NN(c2ccccc2)C(=O)/C1=C/c1ccc(Br)cc1 | 99
FC(F)(F)c1cc(Cl)c2nc(CSc3ncccn3)cn2c1 | 100
COc1ccc(-n2c(C)c3c(C)nnc(C)c3c2C)cc1 | 103
COc1cc2c(cc1OC)C(COc1ccc3c(C)cc(=O)oc3c1)N(C(=O)C1CC1)CC2 (stereo not given) | 97
CN1CCN(c2nnc(-c3ccccc3)c(-c3ccccc3)n2)CC1 | 102
CCn1c(Cn2nnc3ccccc32)nnc1SCC(=O)c1ccc(Br)cc1 | 92
O=c1sc2ccccc2n1CCCOc1ccccc1Cl | 104
O=C(CSc1ncnc2ccccc12)N1CCCCC1 | 101
N#CC(=C1CCCC1)c1nc2ccccc2[nH]1 | 102
Cc1c(NC(=O)C(C)(C)C)c(=O)n(-c2ccccc2)n1C | 83
O=C(CCc1c[nH]c2ccccc12)Oc1ccc(F)cc1 | 105
CCSc1nnc(NC(=O)c2ccc(OC)cc2OC)s1 | 101
CC(C)(Oc1ccc(Cl)cc1)C(=O)N1CCCCC1 | 101
CCOC(=O)c1csc(NC(=O)/C=C/c2cccs2)n1 | 100
Cc1cc(C)n(C(=O)c2ccc(Cl)cc2)n1 | 99
O=C(CCN1C(=O)c2ccccc2Sc2ncccc21)NCCc1ccc(Cl)cc1 | 101
COc1cccc(C2/C(=C(/O)c3ccc(Cl)cc3)C(=O)C(=O)N2c2ccc(OCC(=O)O)cc2)c1 (stereo not given) | 92
COc1cc(/C=C2/C(=N)N3C=CSC3=NC2=O)cc(OC)c1OCCOc1ccc(C)c(C)c1 | 100
CCOC(=O)c1oc2cccc(O)c2c1CN(Cc1ccccc1)C(C)=O | 101

Some of the compounds tested, so the mix of outcomes need not match the whole.
